gsp antag – antagonizes gsp, the McCune-Albright syndrome mutation; Potency, µM (highest dose often 76.9 µM), without a hit: at the top dose activity change, negative = inhibition, usual class: inhibitors; 340,000 tested, 0.4% active; gsp-mutant cells, cAMP HTRF, 30 min; control for the full effect not named in the record; active = falling curve of any shape with a large fitted effect; inconclusive = falling curve, mostly with a smaller effect; inactive = flat or rising curve; cell line not stated here;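 also: intracellular cAMP measured with PDE inhibitor Ro 20-1724 present during compound exposure; potency is read from the fitted curve at half-maximal effect; % is scaled to controls: 0 for no effect and ±100 for the full control effect; nearly all actives have a fitted effect of over 65% in size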
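HTRF cAMP measurement after 30 min RT detection following 30 min, 37C compound treatment alongside […] (added as 300 uM solution) in G418-selected cells seeded at 2000/well and grown 16–24 h.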
gsp ag – gsp mutant agonism. AID 624287. 340,000 tested, 0.13% active. gsp mutant cells, cAMP HTRF, 30 min; control for the full effect not named in the record. Potency, µM (series often up to 76.9 µM), inactives show top-dose activation (cAMP increase), usual class: activators; active = well fitted activation curve with a large enough effect; inconclusive = small, poorly fitted or top-dose-only effect, or another doubt; inactive = no such curve, though single readings can be large or run the other way; cell line not stated here;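 also: phosphodiesterase inhibitor Ro 20-1724 added with compounds to block cAMP breakdown; potency is read from the fitted curve at half-maximal effect; nearly all actives have a fitted effect of over 60% in size; about a fifth of the inactives were tested at one dose only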
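Cells in DMEM/10% FBS with G418 were pretreated with compounds in DMSO plus […] (300 uM stock) for 30 min at 37C. cAMP was measured by HTRF (cAMP-d2 plus anti-cAMP antibody-K) after 30 min at room temperature.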
Menin MLL FP FL – inhibitors of human menin-MLL interaction, wild-type MLL peptide | 290,000 tested, under 10 active | FP activity change, % at 61.4 µM | AID 1766 | Fluorescence polarization, fluorescein-MLL peptide displacement from menin; inconclusive = falling polarisation curve, or a change in total fluorescence; inactive = total fluorescence flat and polarisation flat or rising; no compound was filed as active; the % refers to the polarisation; negative = inhibition;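 also: % of control where 0% means no effect; inhibitors lower the polarisation; unlabelled MLL peptide was the positive control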
TRPML1 agonist – agonists of human TRPML1 channel; Q9GZU1; TRPML1-expressing cells, Ca2+ dye fluorescence, FDSS; host cell line not named in the record; reference of the full effect not given here; activation, % (test concentration not listed); 410,000 tested, 0.12% active; AID 624414; in the data active = activation above about 50%; inconclusive = about 30% to 50%; inactive = below about 30%; also: 0% is about no effect; the text of the record puts the active cut at 80%
Target sequence (Q9GZU1 whole entry, looked up): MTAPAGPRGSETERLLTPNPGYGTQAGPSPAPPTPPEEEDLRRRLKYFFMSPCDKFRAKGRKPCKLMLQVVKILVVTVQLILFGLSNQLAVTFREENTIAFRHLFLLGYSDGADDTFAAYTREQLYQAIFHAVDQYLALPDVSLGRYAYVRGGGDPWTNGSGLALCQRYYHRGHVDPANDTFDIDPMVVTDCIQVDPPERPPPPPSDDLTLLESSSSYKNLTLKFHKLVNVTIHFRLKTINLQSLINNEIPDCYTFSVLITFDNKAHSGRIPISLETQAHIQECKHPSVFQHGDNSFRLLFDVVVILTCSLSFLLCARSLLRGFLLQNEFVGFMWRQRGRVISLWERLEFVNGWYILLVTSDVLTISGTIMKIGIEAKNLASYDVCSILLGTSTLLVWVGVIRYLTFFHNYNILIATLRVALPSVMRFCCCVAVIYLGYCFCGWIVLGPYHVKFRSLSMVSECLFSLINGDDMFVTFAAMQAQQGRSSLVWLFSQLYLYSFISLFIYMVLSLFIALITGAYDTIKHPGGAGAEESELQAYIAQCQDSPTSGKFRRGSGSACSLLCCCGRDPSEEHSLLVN
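TRPML1-DL cells, Tet-induced overnight (~16 h, 37 degrees C), loaded 45-90 min at room temperature with Ca8 no-wash calcium dye plus quencher. FDSS fluorescence: 10 s baseline, compound pin-transfer, 110 s agonist read, then EC80 54-4 (4uM final) and 110 s antagonist read.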
ClpP mod – qHTS Assay for Activators of ClpP. ATP-dependent Clp protease proteolytic subunit (Bacillus subtilis (strain 168)), P80244. purified B. subtilis ClpP, FRET peptide cleavage, 20 min. Potency, µM (titrated, usually from 57.5 µM), for inactives: top-dose activity change, negative = active. 340,000 tested, 1.9% active; active = well fitted falling curve with a large enough effect; inconclusive = small, poorly fitted or top-dose-only effect; inactive = no such curve, though single readings can be large or run the other way; also: potency is read from the fitted curve at half-maximal effect; the source files actives as falling curves though it sought activators and does not explain the sign; nearly all actives have a fitted effect of over 65% in size; many hits overshoot -100%
Target sequence (P80244 whole entry, looked up): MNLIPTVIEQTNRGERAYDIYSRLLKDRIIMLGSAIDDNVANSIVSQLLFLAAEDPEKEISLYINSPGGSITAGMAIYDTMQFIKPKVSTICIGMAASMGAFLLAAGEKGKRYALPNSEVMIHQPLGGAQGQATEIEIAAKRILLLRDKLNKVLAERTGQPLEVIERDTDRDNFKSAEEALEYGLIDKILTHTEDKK
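Buffer: 100 mM Tris/HCl pH8, 100 mM KCl, 0.05% low protease BSA, 2.5% glycerol, 0.01% Tween-20. ClpP 10 microg/mL final; 20 min RT; delta FRET normalized to ADEP and DMSO controls.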
TRPML1 blocker – human mucolipin-1 channel inhibition; TRPML1-inducible cells, Ca2+ dye fluorescence, FDSS; hits give low values; inhibition of EC80 agonist-evoked calcium signal; 390,000 tested, 0.02% active; Q9GZU1; activity change, negative = inhibition, % (no concentration beside the values); AID 624415; in the data active means activity change below about -50%; inconclusive means about -30% to -50%; inactive means above about -30%;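 also: stimulus is agonist 54-4 at its EC80 concentration; % is scaled to controls: 0 for no effect and ±100 for the full control effect; compound concentration not given in the record; the text of the record puts the active cut at -80%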
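TRPML1-DL cells, Tet-induced overnight (~16 h, 37 °C) at 1,500 cells/well, were loaded with Ca8 no-wash dye plus quencher for 45-90 min at room temperature. Compounds were pinned during FDSS kinetic reading; agonist 54-4 at EC80 (4 uM final) then added.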
Active calls of the source: *; ? = inconclusive; · = no result given; & = joins results of further samples; [ ] = another dose, or the depositor's remark.

SMILES	gsp antag	gsp ag	Menin MLL FP FL	TRPML1 agonist	ClpP mod	TRPML1 blocker
CCc1cccc(C)c1NC(=O)CCCn1nc(C)c2sc3ccccc3c2c1=O	·	·	·	0.2	-10%	34
O=C(NCCc1ccccc1)Nc1cccc(Cl)c1	-1%	-21%	?	1.6	1.7%	40
Cc1ccc(S(=O)(=O)C(C#N)c2nc3ccccc3nc2N2CCC(C)CC2)cc1 (configuration not stated)	-5%	?	?	0.2	-2.7%	26
CCOCCCn1c(=S)[nH]c2cc(C(=O)N3CCC(C(N)=O)CC3)ccc2c1=O	11%	-3%	-0.1	-0.5	-1.3%	6
CCOC(=O)C1CCCN(C(=O)c2cc3c(OC)c(OC)c(OC)cc3[nH]2)C1 (configuration not stated)	4%	26%	-10	0.7	-17%	55
CCS(=O)(=O)C1=NN2C(=N)/C(=C\c3ccc(OS(=O)(=O)c4ccccc4)cc3)C(=O)N=C2S1	-11%	-2%	·	-0.1	-4.7%	18
O=C(COc1ccccc1F)N1N=C(c2cccs2)CC1c1ccco1 (configuration not stated)	-16%	2%	·	3.2	?	14
CCOC(=O)C1=C(C)NC(=O)NC1c1ccc2c(c1)OCO2 (configuration not stated)	6%	-7%	-3.3	-0.1	1.2%	3
O=C(CCc1nnc2n(Cc3ccccc3Cl)c(=O)c3ccccc3n12)NCCCN1CCOCC1	0%	2%	·	0.9	-7.4%	16
CCOC(=O)Cc1csc(NC(=O)Nc2cccc(OC)c2)n1	0%	-12%[15.4 µM]	-1.9	-0.7	-0.2%	-7
COc1ccc2c(C)cc(SCn3nnc4ccccc4c3=O)nc2c1	3%	5%	6.5	-0.6	2.2%	8
O=C(Nc1ccccc1)c1ccccc1OCc1cccc([N+](=O)[O-])c1	?	?	?	4.1	0.3%	34
CCO[C@@H]1OC(C(=O)N2CCOCC2)=C[C@H](C)[C@H]1CCCO	2%	·	-1.1	-0.4	0.0%	-11
c1ccc(CNc2ncnc3sc4c(c23)CCCC4)nc1	-1%	15%[15.4 µM]	-2.3	0.4	2.5%	21
O=C(Nc1ccccc1)NC1CCN(CCCN2C(=O)c3ccccc3C2=O)CC1	7%	-5%	2.6	-0.5	0.6%	1
CC1CCN(CCCNC(=O)C2CC(=O)N(CCc3ccccc3)C2)CC1 (configuration not stated)	8%	12%	3.8	-0.1	-1.1%	-9
Cc1ccnc(N/C=C(/NC(=O)c2ccccc2)C(=O)NN)n1	3%	3%	0.6	-0.2	·	-21
Cc1onc(-c2c(Cl)cccc2Cl)c1C(=O)c1c[nH]c(C(=O)NCC2CCCO2)c1 (configuration not stated)	-8%	-20%[15.4 µM]	6.0	0.2	·	27
COC(=O)c1sc(NC(=O)/C=C/c2ccccc2Cl)nc1C	6%	1%	1.4	-0.9	0.1%	6
OC(COc1ccc(CN2CCSCC2)cc1)CN1CCCCC1 (configuration not stated)	-2%	-2%	-2.9	0.0	1.5%	6
CC(CNC(=O)CCn1c(=O)c2cccn2c2ccc(F)cc21)c1ccccc1 (configuration not stated)	-7%	?	·	-1.8&3.8	?	-12&5
Fc1ccc(OCc2nnc(SCCN3CCOCC3)o2)cc1	15%	-10%	5.9	0.2	0.5%	-2
O=C(Nc1ccnn1C1CCN(C(=O)c2ccc(Cl)cc2)CC1)C1CC1	6%	?	·	-0.2	0.9%	-5
Cc1ccccc1OCC(=O)OCc1cc(=O)n2nc(C3CC3)sc2n1	·	·	·	-0.7	-2.6%	30
C=CCn1c(SCC(=O)NCC(c2ccccc2)N(C)C)nnc1C1CCCCC1 (configuration not stated)	6%	-26%	·	-0.5	1.5%	-2
CCC(=O)OCc1cc(=O)oc2ccc3ccccc3c12	0%	?	3.1	0.9	·	-15
COc1ccc(N2C(=O)c3cc4ccccc4cc3C2=O)cc1	13%	-4%	-1.5	1.0	-0.7%	9
Cc1cc(C)[n+](Cc2ccccc2)cc1C(N)=O	6%	-10%	·	1.3	·	10
Cc1cc(C)c2c(=O)[nH]c(SCc3ccccc3C)nc2n1	26%	11%	-1.1	1.1	·	12
CCCCOC(=O)/C=C/c1c(C)[nH]c(=O)[nH]c1=O	3%	0%	1.1	1.5	-2.1%	-1
CCOc1ccc(-n2cc(C(=O)NCc3ccco3)c3cc(OC)c(OC)cc3c2=O)cc1	2%	5%[15.4 µM]	2.1	0.9	1.0%	-16
CCOC(=O)C1CCN(CC(O)COc2ccc(C(C)=O)cc2)CC1 (configuration not stated)	8%	12%	-1.3	0.0	1.1%	-1
COCCn1c(=S)[nH]c2cc(C(=O)N3CCN(c4cccc(Cl)c4)CC3)ccc2c1=O	?	?	-5.4	1.9	-4.0%	4
CCCCCC(=O)N[C@@H](c1ccccc1)[C@@H](O)C(=O)O[C@H]1C[C@@]2(O)[C@@H](OC(=O)c3ccccc3)C3[C@](C)(C(=O)[C@H](OC(C)=O)C(=C1C)C2(C)C)[C@@H](O)C[C@H]1OC[C@@]31OC(C)=O (some centres not stated)	-7%	·	6.0	·	-0.9%	·
C[C@H]1CN([C@@H](C)CO)C(=O)CCCn2nncc2CO[C@@H]1CN(C)Cc1ccc(Oc2ccccc2)cc1	·	?	·	0.5	-1.5%	-2
Fc1ccc2nc(C(F)(F)F)cc(N3CCOCC3)c2c1	-4%	8%[15.4 µM]	-1.3	-1.2	·	9
CCOc1ncccc1C(=O)NCc1ccc(OC)c(OC)c1	9%	2%	7.7	-0.5	0.6%	3
CC1(C)CC(=O)C2=C(C1)Nc1ccccc1NC2c1ccc(F)cc1 (configuration not stated)	-5%	-6%	1.1	-0.4	·	-1
O=C(CCNC(=O)c1ccccc1Cl)NCCc1ccc(Cl)cc1	4%	2%	0.8	·	1.6%	·
O=C(O)c1cccc(N2C(=O)C3CC=CCC3C2=O)c1 (configuration not stated)	9%	-5%	-1.5	0.4	-0.1%	61
Cc1cc2ncn(/N=C/c3ccc([N+](=O)[O-])o3)c2cc1C	3%	16%	6.7	0.6	-1.2%	-14
CCNC(=S)NNC(=O)Cn1nc(C)cc1C	5%	16%	3.2	-0.1	-0.1%	10
CCC(c1nnc(SCC(=O)NCC2CCCO2)n1Cc1ccccc1)N(C)C (configuration not stated)	9%	5%	·	0.0	-0.2%	12
O=C1COc2ccc(C(=O)COC(=O)CCCOc3ccccc3)cc2N1	·	33%	·	-0.2	-0.9%	-4
CCc1ccc(-n2nc(CO)c(C(=O)NCc3ccccc3Cl)n2)cc1	·	·	·	2.4	?	0
CCN(CC)C(=O)COc1ccc(Br)cc1Cl	11%	3%	1.1	-0.2	3.6%	2
CCOC(=O)C1=C(COC(=O)C2CC(=O)N(c3ccccc3CC)C2)NC(=O)NC1C (configuration not stated)	·	-31%[inhibitor]	·	-0.5	2.8%	-3
Cc1ccc2c(c1)C(c1ccc(F)cc1)N(C(=O)c1ccccc1Br)CC(=O)N2 (configuration not stated)	-19%	-42%[15.4 µM]	-5.4	0.9	·	-7
Cc1cccc(N(C)c2nc3ccc(C(=O)c4ccccc4)cc3n3c(C)nnc23)c1	·	·	·	3.2	-12%	53
COc1ccc(OC)c(CN2CCCCCC2)c1	-3%	-51%[inhibitor]	-2.0	0.3	·	8

Grouped by structure: the entries above containing a furan ring, fused or not.
SMILES	gsp antag	gsp ag	Menin MLL FP FL	TRPML1 agonist	ClpP mod	TRPML1 blocker
O=C(COc1ccccc1F)N1N=C(c2cccs2)CC1c1ccco1 (configuration not stated)	-16%	2%	·	3.2	?	14
CCOc1ccc(-n2cc(C(=O)NCc3ccco3)c3cc(OC)c(OC)cc3c2=O)cc1	2%	5%[15.4 µM]	2.1	0.9	1.0%	-16
Cc1cc2ncn(/N=C/c3ccc([N+](=O)[O-])o3)c2cc1C	3%	16%	6.7	0.6	-1.2%	-14

Next part.
SMILES	gsp antag	gsp ag	Menin MLL FP FL	TRPML1 agonist	ClpP mod	TRPML1 blocker
CCOC(=O)C(NC(=O)NCc1ccccc1OC)(OCC)C(F)(F)F (configuration not stated)	14%	-46%[inhibitor]	0.2	0.1	8.4%	-8
Cc1cc(Cl)ccc1OCCCC(=O)OCC(=O)c1c(N)n(C)c(=O)n(C)c1=O	-16%	?	-0.5	1.6	0.0%	-2
CCS(=O)(=O)c1ccc(O)c(NC(=O)CC2(CC(=O)O)CCCC2)c1	10%	-2%[15.4 µM]	0.4	-0.4	-0.8%	-3
CC(C)CC(=O)NC(NC(=S)Nc1sc2c(c1C#N)CCCC2)C(Cl)(Cl)Cl (configuration not stated)	?	-4%	2.9	0.3	-2.9%	5
CCn1c(=N)n(CCO)c2ccccc21	5%	6%	7.0	0.3	-2.9%	44
COc1cc2[nH]c(=O)n(Cc3ccc(C(=O)N4CCN(c5cccc(C)c5C)CC4)cc3)c(=O)c2cc1OC	·	·	·	-0.4	?	-23
COc1ccc(OCc2ccc(-c3nc(C#N)c(N4CCC(C)CC4)o3)o2)cc1	·	·	·	-0.1	25µM*	47
CC(=O)Nc1ccc(C(=O)OCC(=O)Nc2ccccc2F)cc1	-22%	31%[15.4 µM]	-0.1	0.5	0.2%	16
CCOC(=O)c1c(C)[nH]c(C2=NNC(=Nc3ccccc3OC)SC2)c1C	-2%	8%[15.4 µM]	3.1	-0.1	0.7%	-3
COc1ccc(CCC(=O)Nc2ccc(S(=O)(=O)N3CCCC3)cc2)cc1OC	-13%	0%	·	-0.8	2.4%	-4
CCCc1ccc2oc(C(=O)NCCCN3CCOCC3)c(C)c2c1	-5%	-10%	·	0.3	-28%	-10
COC(=O)c1cn(CC(=O)NCc2cccs2)c2ccccc12	0%	0%	-0.3	3.7	0.0%	-16
O=C(Cn1ccc(C(F)(F)F)n1)Nc1cccc(S(=O)(=O)N2CCCCC2)c1	·	-2%[15.4 µM]	-5.7	0.1	·	13
CCOC(=O)c1nc(Nc2ccccc2OC)c2ccccc2n1	·	·	·	3.1	1.3%	-20
Cc1ccc(S(=O)(=O)NCCC(=O)NNC(=O)c2ccccc2O)cc1C	8%	-9%	·	-0.8	?	-7
COCCCN1CN(S(=O)(=O)c2cccs2)c2nc3ccccc3nc21	-5%	21%[15.4 µM]	2.7	-0.4	·	-19
CCCCc1nc(NCCN)c(C#N)c2c1CSC(C)(C)C2	0%	11%	1.2	-0.1	?	-7
Cc1ccc2nc(Cl)c3cc(C(=O)NCCCN4CCC(C)CC4)sc3c2c1	·	·	·	0.1	0.2%	-4

A different layout for 2 compounds above:
| SMILES | gsp antag | gsp ag | Menin MLL FP FL | TRPML1 agonist | ClpP mod | TRPML1 blocker |
| --- | --- | --- | --- | --- | --- | --- |
| Cc1cc2ncn(/N=C/c3ccc([N+](=O)[O-])o3)c2cc1C | 3% | 16% | 6.7 | 0.6 | -1.2% | -14 |
| CCNC(=S)NNC(=O)Cn1nc(C)cc1C | 5% | 16% | 3.2 | -0.1 | -0.1% | 10 |

High-throughput results from PubChem.
